# Source: PubChem (several laboratories)
# Yeast UUG start: alters start codon recognition fidelity in yeast | activity score, % at 18.7 µM | S. cerevisiae UUG-firefly luciferase reporter, luminescence/redox ratio | 350,000 tested, 0.13% active;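 active means replicate mean at a twofold rise or more, about +100% in these data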;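 further: firefly luciferase made from a UUG start codon reports start codon fidelity; reporter light over untreated wells divided by growth signal over untreated wells; some hits fall short of that in this replicate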
# Rce1 inh: inhibitors of yeast Ras-converting enzyme | yeast membranes, quenched prenylated peptide cleavage fluorescence | calls only | 290,000 tested, 0.27% active | AID 2563;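 active means fall in fluorescence gain of 50% or more versus controls, with final raw signal at or below 3038400; inconclusive means same 50% fall but final raw signal above 3038400; inactive means fall in fluorescence gain under 50%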;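 further: plate controls were neutral control wells for no effect and wells lacking membranes for full effect; tested at 10 µM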
# HIV Env fusion: HIV envelope-mediated fusion inhibition; HeLa-JRFL Env/CEM21 cell fusion, luciferase; inhibition, % at 12.3 µM; 360,000 tested, 1.1% active;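 active means mean replicate inhibition score of at least 50 and every replicate individually at or above 50; inconclusive means only one of the two criteria met; inactive means mean below 50 and not all replicates reaching 50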;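 further: 0% = plate neutral controls and 100% = maraviroc near 300 nM; one replicate is shown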
# MT1-MMP act inh: MT1-MMP (human) activation inhibition; HT1080 RFP-PRO-GFP cells, GFP/RFP ratio fluorescence, overnight; percent of plate control window, DMSO zero; GFP/RFP ratio change, % at 20 µM; 360,000 tested, 0.061% active;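 active means GFP/RFP ratio change of at least 30% with cell ATP level not reduced by more than half and red fluorescence within 50% of control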; further: strong numbers were not always called active
#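 Test system: HT1080 cells expressing an RFP-PRO-GFP fluorescent reporter construct / Compound dosing: single-point 20 µM compound, 1% DMSO / Schedule: cells overnight before dosing, compound overnight, 37 °C, 5% CO2 / Evaluation: GFP/RFP fluorescence ratio / Control set: DMSO and RFP-L50D-GFP cell wells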
# eIF4H FP inh: inhibitors of RNA binding by human eIF4H; Q15056; 290,000 tested, 0.94% active; inhibition, % at 35 µM; AID 2012; eIF4H fluorescence polarization binding assay;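 active means 50% or more with normal probe brightness, or confirmed in later tests; inconclusive means above 50% with abnormal brightness, or retests that disagree; inactive means below 50% or failed in later tests; about a fifth of its hits are not listed in these tables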;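 further: calls also rest on retests at 20 µM and on dose response follow-up; 0% = protein and probe with vehicle and 100% = probe without protein; strong numbers were not always called active; many hits fall short of the cut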
# PABP FP inh: blocks human PABP binding to poly(A) RNA | 290,000 tested, 1% active | inhibition, % at 35 µM | P11940 | fluorescence polarization | AID 2014;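 active means 50% or more with normal probe brightness, or confirmed in later tests; inconclusive means above 50% with abnormal brightness, or retests that disagree; inactive means below 50% or failed in later tests; about a fifth of its hits are not listed in these tables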;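 further: calls also rest on retests at 20 µM and on dose response follow-up; controls were probe without protein and protein plus probe with vehicle; some compounds called inactive have numbers as strong as hits; many hits fall short of the cut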
# Target sequence (P11940 whole entry, looked up): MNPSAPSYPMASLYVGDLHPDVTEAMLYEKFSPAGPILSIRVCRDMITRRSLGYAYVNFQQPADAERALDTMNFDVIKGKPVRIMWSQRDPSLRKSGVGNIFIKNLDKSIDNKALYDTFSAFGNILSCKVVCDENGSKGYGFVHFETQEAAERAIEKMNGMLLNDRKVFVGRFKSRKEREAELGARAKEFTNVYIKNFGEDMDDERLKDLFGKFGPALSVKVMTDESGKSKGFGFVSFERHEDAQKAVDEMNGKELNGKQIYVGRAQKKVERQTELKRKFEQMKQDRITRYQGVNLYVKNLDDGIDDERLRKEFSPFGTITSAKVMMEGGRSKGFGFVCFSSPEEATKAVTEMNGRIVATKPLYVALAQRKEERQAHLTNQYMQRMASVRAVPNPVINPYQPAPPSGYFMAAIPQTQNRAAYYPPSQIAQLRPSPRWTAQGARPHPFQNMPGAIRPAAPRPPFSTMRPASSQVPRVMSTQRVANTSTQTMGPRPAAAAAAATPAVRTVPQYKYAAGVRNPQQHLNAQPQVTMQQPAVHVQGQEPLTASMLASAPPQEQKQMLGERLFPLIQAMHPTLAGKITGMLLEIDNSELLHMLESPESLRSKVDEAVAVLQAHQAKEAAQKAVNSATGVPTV
# CSC inhib: cancer stem cell inhibition | AID 2717 | cancer stem cell-like cells viability, luminescence | 300,000 tested, 1.1% active | inhibition, % at 7.5 µM;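 active means mean at 75% or more and at least half the replicates too; inconclusive means mean and replicates disagree; tested in HMLE shEcad cells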;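 further: 0% = median of negative and 100% = median of positive control wells; the first replicate is given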
# eIF4H FP inh retest: second read-out of eIF4H FP inh, no call of its own (marks repeat the call); inhibition, %; compound at 20 µM; confirmation average;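 mean of two retest wells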
# PABP FP inh retest: also measured in PABP FP inh; calls as there; inhibition, %; compound at 20 µM; confirmation repeats;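 mean of two retest wells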
# MT1-MMP act inh RFP: also measured in MT1-MMP act inh; calls as there; RFP signal change, %; measured here: RFP expression control read;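 0 = vehicle wells; hits needed this value within 50% of zero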
# Numbers without * were called inactive; i = inactive; ? = inconclusive; · = no result given; & = joins results of further samples. A portion of the library, so the mix of outcomes need not match the whole.
SMILES,Yeast UUG start,Rce1 inh,HIV Env fusion,MT1-MMP act inh,MT1-MMP act inh RFP,eIF4H FP inh,PABP FP inh,CSC inhib,others
C=CCN1C(=O)S/C(=C\c2ccc3c(c2)n(C)c(=O)n3C)C1=O,0,i,-22,8,8,5,4,·,
COc1ccc(/C=N/NC(=O)c2ccc(Cl)cc2Cl)cc1COC(C)=O,·,i,-2,-6,-1,-1,-2,31,
O=C(NCCCn1ccnc1)c1ccc(Br)cc1,-17,i,-2,3,1,-1,26,-13,
COC(=O)c1cccc(NC(=O)c2cc(OC)c(OC)c(OC)c2Br)c1,·,i,11,-3,0,2,-5,-18,
COc1ccc(-c2cn(CCO)c(CCN)n2)cc1,-12,·,-46,-3,0,·,·,-13,
COC1CCCCC1Nc1cc(C)ccc1C (configuration not stated),·,i,·,2,8,11,16,7,
O=C(NCCNCCO)c1c(O)c2cccc3c2n(c1=O)CCC3,-9,i,·,-3,-5,3,28,-3,
CCN(C(=O)COC(=O)c1nccnc1N)c1cccc2ccccc12,-12,·,-6,-1,-3,·,·,-15,
CCC(=O)Nc1cccc(C2=NOC3(C2)C[C@@H](C(N)=O)N(C(=O)CC(c2ccccc2)c2ccccc2)C3)c1 (some centres not stated),0,i,-33,-3,0,3,5,-9,
C[C@H]1CN([C@@H](C)CO)C(=O)c2cccc(NC(=O)C3CC3)c2O[C@H]1CN(C)S(=O)(=O)c1ccccc1,1&7,·,-28,-2,-2,·,·,-23,
CCOc1ccc(NC(=O)c2c(NC(=O)CN3CCN(C)CC3)sc3c2CCC3)cc1,8,i,1,-1,-9,-9,-10,-4,
Cc1cccc(Cn2c(C)nc3c(N)c(C)c(C)cc32)c1,·,i,17,1,1,-18,-6,-4,
Cc1ccsc1/C=N/Nc1ccc(F)cc1F,·,i,-44,5,4,7,6,49,
OC(CNCc1ccccc1F)(c1ccc(F)cc1)c1ccc(F)cc1,·,i,-6,-4,-6,1,-6,3,
COc1ccc(N(CC(=O)NCC2CCCO2)S(=O)(=O)c2c(C)noc2C)cc1 (configuration not stated),-13,i,-43,-1,-4,9,-5,-8,
CC(C)C(=O)Nc1cccc(C(=O)Nc2cc([N+](=O)[O-])ccc2F)c1,·,i,10,5,6,10,-19,-14,
Cc1nc2nc(SCc3ccccc3)[nH]n2c(=O)c1C,-5,i,7,0,-3,-7,9,6,
Cc1ccc2[nH]c(C)c(/C=C/c3cc[n+](C)cc3)c2c1,-1,i,60*,-63,1,?,?,15,
COc1cc(CNc2cc(C)ccc2C)cc(OC)c1OC,-11,·,·,5,-15,5,-10,-4,
CCOCC(=O)N1CCN(Cc2ccc3c(c2)OCO3)CC1,-16,i,1,8,2,2,3,-7,
CC(=O)N/C(=C\c1ccc2c(c1)OCO2)C(=O)NC(C(=O)O)c1ccccc1 (configuration not stated),-3,i,7,-6,-5,-10,2,11,
COC(=O)CCCN1C(=O)c2cccc3cccc(c23)C1=O,-2,i,-2,-2,3,-8,-4,-12,
CC(NC(=O)/C=C/c1ccco1)c1nc2ccccc2n1Cc1ccccc1F (configuration not stated),·,i,-14,-5,5,3,5,-4,
O=C(NCc1cccc(C(F)(F)F)c1)c1csc([C@H]2C[C@H](O)[C@@H](CO)O2)n1,-4,·,0,-5,5,·,·,·,
Cn1c(=O)c2c(nc(NCc3ccco3)n2C)n(C)c1=O,-9,i,·,7,2,4,1,-13,
CCNC(=O)c1ccc(NS(=O)(=O)c2ccccc2)cc1,-24,i,·,6,2,-15,-4,-15,
COc1cc2[nH]c(=O)n(Cc3ccc(C(=O)NCCCN4CCC(C)CC4)cc3)c(=O)c2cc1OC,-17,i,-40,3,6,-13,-4,5,
COc1ccc(-c2nnc(-c3ccc4ccccc4c3)o2)cc1,-10,·,-142,-2,0,·,·,·,
CCS(=O)(=O)N1CCC(NC(=O)C(Cc2cc(OC)ccc2OC)NC(C)=O)CC1 (configuration not stated),-6,i,-8,-3,1,-6,-6,-1,
CC(C)NC(=O)NC(=O)COC(=O)C1CCCN1C(=O)c1cccs1 (configuration not stated),-16,i,·,-1,-4,8,4,-4,
CCCSc1n[nH]c(NC(C)=O)n1,-9,i,7,0,4,-3,-4,-4,
N#CC1=C(Nc2ccccc2)SC=C(c2ccccc2)N=C1N1CCOCC1,·,i,·,-2,2,-8,10,·,
Cn1c(SCC(=O)c2ccc(-c3ccccc3)cc2)nnc1-c1ccco1,-21,i,-25,1,7,58,1,1,eIF4H FP inh retest=-3;PABP FP inh retest=4
CCCCNC(=O)CCn1c(=O)c2cccn2c2ccc(F)cc21,5,i,-34,-2,-2,-8,2,-4,
CCCc1cc(C(=O)Nc2cccc(Cl)c2C)no1,-16,i,-17,1,2,6,11,1,
COc1cc(O)c(C(CC(=O)N2CCCC2)c2ccc(N(C)C)cc2)c(OC)c1 (configuration not stated),-6,i,12,-5,-3,20,7,-10,
O=C(Nc1nc2ccc(S(=O)(=O)N3CCOCC3)cc2s1)c1cccs1,2,i,13,1,-2,-5,-3,-11,
O=C(NCC(=O)N1CCN(C(c2ccccc2)c2ccccc2)CC1)c1ccccc1F,-6,i,3,0,0,3,1,-7,
CCC(=O)Oc1c(S(=O)(=O)c2ccc(C)cc2)c(C)nn1C(C)(C)C,14,i,·,0,1,0,3,24,
O=C(NC1CCCCCCC1)C1CCN(S(=O)(=O)N2CCC3(CC2)OCCO3)CC1,-5,i,·,7,2,0,-2,-6,
CC(=O)CC(=O)NC1C2CC3CC(C2)CC1C3 (configuration not stated),-20,i,-90,9,6,-5,-8,-7,
COc1ccc(CNC(=O)C(Cc2ccccc2)n2cccc2)cc1 (configuration not stated),-15,i,-44,0,-2,2,10,-9,
Cc1cc(C)c(OCCN2C(=O)NC(C)(C)C2=O)c(Cl)c1,0,i,-15,-2,2,1,-6,-13,
O=C(CCn1c(=O)sc2ccccc21)Nc1nc2ccccc2s1,12,i,-7,-2,-1,-3,-1,-3,
O=C(NC(c1ccccc1)c1ccccc1)C1CCCO1 (configuration not stated),·,i,-14,-4,-2,2,-8,-13,
Cc1ccc(C(=O)NCC(=O)OC(C)C(=O)Nc2ccccc2[N+](=O)[O-])s1 (configuration not stated),-22,·,3,-1,3,·,·,-20,
CCCCOc1ccc(C(=O)Nc2ccc3c(c2)OCO3)cc1,·,i,-3,-4,-8,11,25,93*,
COc1ccc(OC)c(NC(=O)NNS(=O)(=O)c2ccc(C)cc2C)c1,-10,i,2,-2,-2,-5,1,·,
O=C(Cn1cccc1C(=O)c1ccccc1)NCc1ccc2c(c1)OCO2,-14,i,·,-1,0,-4,8,1,
CCOC(=O)c1cccnc1NC(=O)c1ccccc1,·,i,4,-3,1,12,-6,-4,
Cc1[nH]c(C)c(S(=O)(=O)N2CCCCC2)c1C(=O)N1CCCC1,-19,i,1,0,1,-4,-2,-12,
COC(=O)c1ccc(-c2cc(CC3(C(=O)OC)CCN(C(=O)OC(C)(C)C)CC3)on2)cc1,-2,i,4,3,-18,-7,-16,-11,
Cc1ccc(-c2csc3ncn(CC(=O)O)c(=O)c23)cc1C,-21,i,1,1,2,-2,-1,0,
Cc1onc(-c2ccccc2Cl)c1C(=O)NNC(=O)c1ccccc1F,-2,i,5,0,2,-6,-5,6,
Cc1cc(C)c(S(=O)(=O)NCc2cccnc2)c(C)c1,1,i,8,1,-1,6,8,0,
O=C(c1cccs1)N(Cc1ccco1)C1CCS(=O)(=O)C1 (configuration not stated),-11,i,-8,0,-3,-4,-5,-8,
COc1ccc(CCNC(=O)c2ccc([N+](=O)[O-])cc2Cl)cc1OC,·,i,7,1,3,·,·,11,
COc1ccc(C(=O)NC(=S)N(CCC(C)C)c2c(N)n(Cc3ccccc3)c(=O)[nH]c2=O)cc1,·,i,-9,-5,-7,-7,-8,-21,
CCc1ccc2[nH]c(=O)c(CN(CCN3CCCC3)C(=O)NC3CCCCC3)cc2c1,17,i,·,-3,3,2,-8,-5,
N#Cc1cc2ccccc2nc1N,·,·,-5,-2,0,-9,7,-8,

# Of the compounds above, these contain an aryl methoxy group.
SMILES,Yeast UUG start,Rce1 inh,HIV Env fusion,MT1-MMP act inh,MT1-MMP act inh RFP,eIF4H FP inh,PABP FP inh,CSC inhib,others
COc1ccc(/C=N/NC(=O)c2ccc(Cl)cc2Cl)cc1COC(C)=O,·,i,-2,-6,-1,-1,-2,31,
COC(=O)c1cccc(NC(=O)c2cc(OC)c(OC)c(OC)c2Br)c1,·,i,11,-3,0,2,-5,-18,
COc1ccc(-c2cn(CCO)c(CCN)n2)cc1,-12,·,-46,-3,0,·,·,-13,
COc1ccc(N(CC(=O)NCC2CCCO2)S(=O)(=O)c2c(C)noc2C)cc1 (configuration not stated),-13,i,-43,-1,-4,9,-5,-8,
COc1cc(CNc2cc(C)ccc2C)cc(OC)c1OC,-11,·,·,5,-15,5,-10,-4,
COc1cc2[nH]c(=O)n(Cc3ccc(C(=O)NCCCN4CCC(C)CC4)cc3)c(=O)c2cc1OC,-17,i,-40,3,6,-13,-4,5,
COc1ccc(-c2nnc(-c3ccc4ccccc4c3)o2)cc1,-10,·,-142,-2,0,·,·,·,
CCS(=O)(=O)N1CCC(NC(=O)C(Cc2cc(OC)ccc2OC)NC(C)=O)CC1 (configuration not stated),-6,i,-8,-3,1,-6,-6,-1,
COc1cc(O)c(C(CC(=O)N2CCCC2)c2ccc(N(C)C)cc2)c(OC)c1 (configuration not stated),-6,i,12,-5,-3,20,7,-10,
COc1ccc(CNC(=O)C(Cc2ccccc2)n2cccc2)cc1 (configuration not stated),-15,i,-44,0,-2,2,10,-9,
COc1ccc(OC)c(NC(=O)NNS(=O)(=O)c2ccc(C)cc2C)c1,-10,i,2,-2,-2,-5,1,·,
COc1ccc(CCNC(=O)c2ccc([N+](=O)[O-])cc2Cl)cc1OC,·,i,7,1,3,·,·,11,
COc1ccc(C(=O)NC(=S)N(CCC(C)C)c2c(N)n(Cc3ccccc3)c(=O)[nH]c2=O)cc1,·,i,-9,-5,-7,-7,-8,-21,
